Vif A3G: inhibitors of Vif binding to APOBEC3G peptide, primary screen, biochemical, TR-FRET, GST-Vif 1-94, biotin-A3G peptide, dose response retest (AID 1117319); TR-FRET GST-Vif / biotin-A3G peptide binding; higher % means a stronger effect; test concentration not given here; strong numbers were not always called active; one-dose inhibition, %; IC50 in µM for titrated hits; Virion infectivity factor (Human immunodeficiency virus type 1 group M subtype B (isolate …; 260,000 compounds, 0.57% hits;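 active = above the screen mean plus three standard deviations and confirmed in dose response; inconclusive = results disagree or hit not tested in dose response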;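 also: Vif residues 1-94 fused to GST binding biotinylated APOBEC3G peptide 110-148; 0% = full assay without inhibitor and 100% = GST in place of GST-Vif; retest series ran down from 100 µM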
RanGTP-Impb inh: inhibitors of RanGTP-importin-beta interaction, primary screen, biochemical, FRET, CFP-Ran, YFP-importin-beta, homogeneous; Ran GTPase (GTP-bound) - importin-beta complex; cell-free CFP-Ran/YFP-importin-beta FRET ratio; inhibition, % (no concentration beside the values); 300,000 compounds, 1.1% hits; AID 2216, 2009;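 active = most replicates above 15%; inconclusive = exactly half above 15%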;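 also: 0% = DMSO wells and 100% = Ran loaded with GDP instead of GTP; wells of about 40 µL received 100 nL stock; the first replicate is given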
HNF4A DNA FP: change in binding of human HNF4A to DNA, primary screen, biochemical, fluorescence polarization, FITC-DNA; 1 h; activity change, % at 10 µM; AID 1224865, 2016; 360,000 compounds, 0.3% hits; in the data active = activity change above about 30%, passing the limit was not always enough;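 also: controls were the assay level and a saturating level of protein; the project sought stronger binding though the title names inhibitors; some compounds called inactive have numbers as strong as hits; positive values seem to mean higher polarization but the record does not say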
Target sequence (P41235 whole entry, looked up): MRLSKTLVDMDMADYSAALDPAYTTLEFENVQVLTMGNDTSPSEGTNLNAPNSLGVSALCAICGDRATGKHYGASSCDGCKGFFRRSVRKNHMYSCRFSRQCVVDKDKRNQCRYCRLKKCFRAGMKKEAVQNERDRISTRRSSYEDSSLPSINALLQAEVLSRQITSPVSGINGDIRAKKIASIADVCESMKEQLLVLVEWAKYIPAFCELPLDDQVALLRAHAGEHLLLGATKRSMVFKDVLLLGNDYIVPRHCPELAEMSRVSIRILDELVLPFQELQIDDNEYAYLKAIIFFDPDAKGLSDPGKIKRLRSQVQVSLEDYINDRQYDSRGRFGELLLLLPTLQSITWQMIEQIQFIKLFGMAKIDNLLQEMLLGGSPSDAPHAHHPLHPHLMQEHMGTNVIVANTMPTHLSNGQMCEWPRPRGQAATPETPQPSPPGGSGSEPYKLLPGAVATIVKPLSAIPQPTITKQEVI
Calb FLC: C. albicans growth inhibition with fluconazole, primary screen, CaCi-2 strain, Alamar Blue fluorescence | C. albicans CaCi-2 (fluconazole-resistant clinical isolate) + fluconazole, 48 h | growth inhibition, % (no concentration beside the values) | 300,000 compounds, 0.57% hits;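 active = most replicates above 75%; inconclusive = exactly half above 75%; inactive = most below 75%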;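 also: all wells also contain fluconazole at 8 µg/ml as a sub-toxic cotreatment; 0% = median of DMSO wells and 100% = median of geldanamycin control wells; wells of about 8 µL received 7.5 nL stock; the first replicate is given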
ALR inh: inhibitors of human ALR sulfhydryl oxidase, primary screen, biochemical, H2O2 detection, HRP-luminol luminescence, single point | FAD-linked sulfhydryl oxidase ALR (Homo sapiens), P55789 | purified ALR, DTT oxidation | inhibition, % (concentration not given with the values) | 290,000 compounds, 3.8% hits | AID 485317, 2010;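 active = mean and each replicate at 75% or more; inconclusive = only one of the two met; inactive = neither met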;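 also: stock transfer was 7.5 nL into about 7.5 µL; 0% = neutral wells and 100% = wells with inactivated enzyme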
Target sequence (P55789 whole entry, looked up): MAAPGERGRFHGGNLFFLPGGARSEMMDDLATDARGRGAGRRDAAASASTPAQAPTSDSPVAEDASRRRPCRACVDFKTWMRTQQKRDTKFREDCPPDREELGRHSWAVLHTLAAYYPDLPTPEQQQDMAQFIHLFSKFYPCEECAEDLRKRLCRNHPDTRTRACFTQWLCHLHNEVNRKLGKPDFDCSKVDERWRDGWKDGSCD
B2AR ag: beta2AR agonists driving receptor internalization, primary screen, cell-based, FAP fluorogen, flow cytometry. Beta-2 adrenergic receptor (Homo sapiens), P07550. Am2.2-beta2AR cells; reference of the scale not given here. response, % (concentration not given with the values). 340,000 compounds, 0.43% hits. AID 504454, 2011;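 active = response above a set limit, near 3 SD of response in nonfluorescent compounds, cut at about 42% in these data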;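 also: stock transfer was 100 nL into about 11 µL; a reference agonist was the positive control; negative values mostly stem from fluorescent compounds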
Target sequence (P07550 whole entry, looked up): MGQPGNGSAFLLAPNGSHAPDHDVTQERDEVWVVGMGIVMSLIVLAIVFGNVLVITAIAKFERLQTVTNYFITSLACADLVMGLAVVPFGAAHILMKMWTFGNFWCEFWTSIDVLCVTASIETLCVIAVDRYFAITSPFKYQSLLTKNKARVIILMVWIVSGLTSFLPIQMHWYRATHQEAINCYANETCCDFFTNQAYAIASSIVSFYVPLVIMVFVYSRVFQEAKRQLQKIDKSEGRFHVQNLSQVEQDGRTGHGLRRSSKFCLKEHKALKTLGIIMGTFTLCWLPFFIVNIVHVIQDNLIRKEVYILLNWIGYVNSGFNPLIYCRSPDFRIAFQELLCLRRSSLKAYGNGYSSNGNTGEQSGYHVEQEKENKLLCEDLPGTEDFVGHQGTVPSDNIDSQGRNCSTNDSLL
LANA-H2A inh: blockers of LANA interaction with H2A/H2B – biochemical, FP readout, HTS, primary screen; Protein LANA1 (Human herpesvirus 8 type P (isolate GK18)), Q9QR71; cell-free LANA-H2A/H2B peptide, fluorescence polarization; inhibition, % (concentration not given with the values); 320,000 compounds, 0.6% hits; AID 2629, 2010; in the data active = inhibition mostly above about 10%, no sharp cut-off; inactive = mostly below about 6.7%;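 also: stock transfer was 7.5 nL into about 10 µL; 0% = median of vehicle wells and 100% = median of positive control wells; one replicate is shown; the record names a cut of 25% in any replicate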
Starred values were filed as active, the others as inactive; ? = inconclusive; nt = no result given; & = joins results of further samples.

| SMILES | RanGTP-Impb inh | ALR inh | LANA-H2A inh | Vif A3G | HNF4A DNA FP | Calb FLC | B2AR ag |
| --- | --- | --- | --- | --- | --- | --- | --- |
| C=CS(=O)(=O)N(Cc1ccc(Cl)c(Cl)c1)C[C@@H](O)CO | nt | nt | nt | -1% | 2.7 | nt | 2 |
| Clc1ccc(-c2noc(CSc3nnc(-c4ccncc4)n3-c3ccccc3)n2)cc1 | -2.0 | -5 | 0.6 | -7% | 3.4 | 3 | -1 |
| CCCCC(Sc1nc(N)c(NC(=O)c2ccc(OC)cc2)c(=O)[nH]1)C(=O)O (centres undefined) | -3.5 | 1 | 1.8 | -8% | 2.1 | -16 | -3 |
| CCOc1ccc2nc(N(CCCN(C)C)C(=O)c3ccc(C(=O)c4ccccc4)cc3)sc2c1 | ? | -18 | 2.5 | 7% | 7.8 | 1 | 8 |
| O=C(NCc1nc2ccccc2[nH]1)C1=C[C@H](c2coc3ccccc3c2=O)C[C@H](OCc2ccc(CO)cc2)O1 | -3.6 | nt | 1.1 | nt | 2.8 | 12 | 5 |
| NS(=O)(=O)c1cccc(NC(=S)NCc2ccccc2)c1 | -3.4 | nt | 0.9 | -9% | 0.2 | -9 | 2 |
| CC(Sc1nccn1C)C(=O)Nc1ccc(C(N)=O)cc1 (centres undefined) | 0.2 | nt | nt | -9% | -1.6 | 2 | -10 |
| O=C1CCCN1CCCNC(=S)Nc1ccc(Br)cc1Cl | -0.4 | nt | -8.1 | -2% | 2.7 | -10 | 1 |
| CNC(=O)CCSc1ccc(C)cc1 | 0.8 | -7 | -3.2 | -10% | -0.1 | -12 | 0 |
| CCCn1c(C)cc(/C=C(\C#N)C(=O)OCC(=O)Nc2cccc(S(N)(=O)=O)c2)c1C | nt | 3 | 0.3 | 6% | 0.7 | nt | -5 |
| Cc1ccc2nc(SCC(=O)NC3CCCC3)[nH]c2c1 | 1.0 | 19 | 2.2 | nt | 0.1 | -2 | 4 |
| COC(=O)c1ccc(-c2noc(CN(C)Cc3ccncc3C)n2)cc1 | 4.0 | -20 | -0.7 | ? | 2.1 | -12 | 0 |
| CC1=CC(=O)C(C(C)C)=C/C1=N/OS(=O)(=O)c1ccccc1 | -0.3 | nt | 2.6 | 20% | -0.2 | ? | 30 |
| O=C(CSc1nnc(-c2c[nH]c3ccccc23)n1CC1CCCO1)Nc1ccc2c(c1)OCCO2 (centres undefined) | 1.3 | -5 | 4.0 | 2% | -2.5 | -7 | -1 |
| Cc1cnc(C(=O)OC(C)C(=O)Nc2cccc3ccccc23)cn1 (centres undefined) | 0.5 | -14 | 8.1 | 5% | -1.6 | 5 | -4 |
| CCN(Cc1ccccc1)S(=O)(=O)c1c(N)n(C)c(=O)n(C)c1=O | -3.5 | -10 | 1.3 | 30% | 5.5 | -6 | -5 |
| CN(C)CCCN(C(=O)c1ccc2c(c1)CCCC2)c1nc2c(F)cccc2s1 | -2.4 | -77 | 1.0 | nt | -0.6 | 3 | -1 |
| CN(CCC#N)Cc1cc(=O)oc2ccc3ccccc3c12 | 0.8 | -29 | 2.5 | -4% | -1.4 | 44 | 8 |
| COc1ccc(N2C(=O)N3[C@H](c4ccc(Cl)cc4)[C@@H]4C(=O)N(C5CCCCC5)C(=O)[C@@H]4[C@]3(Cc3ccc(Cl)cc3)C2=O)cc1 | -1.0 | 1 | 6.4 | nt | -1.2 | -4 | -2 |
| COc1ccc(Nc2nc(N)nc(CN3CCN(c4ccc(F)cc4)CC3)n2)cc1 | 5.2 | 99* | 0.5 | 8% | 1.7 | 20 | 8 |
| Cc1cc(NC(=O)c2ccc(F)cc2F)n(-c2nc3ccccc3[nH]2)n1 | -3.8 | -5 | -3.4 | -3% | 1.6 | ? | -1 |
| N#Cc1nc(COc2ccc(Cl)cc2)oc1NCc1ccc2c(c1)OCO2 | -2.2 | -3 | -5.9 | 8% | 0.1 | -2 | 8 |
| COc1cccc(C(=O)NCCCNC(=O)c2ccccn2)c1 | 2.0 | -14 | -4.1 | nt | 0.3 | -7 | -4 |
| COC(=O)c1ccccc1NC1OC(=O)c2ccccc21 (centres undefined) | -2.9 | 11 | -0.7 | -2% | 0.2 | 3 | 5 |
| COC(=O)[C@@H]1CC[C@@](C)(c2ccc(OC)cc2)C1(C)C | 7.8 | -5 | 3.1 | nt | 0.3 | -10 | 11 |
| CN(C)/C=C1\C(=O)ON=C1c1ccccc1 | -0.8 | 0 | -0.6 | 8% | 0.2 | 0 | 10 |
| Cc1cc(OCC(=O)Nc2ccncc2)c(C)cc1Br | -1.1 | 4 | -0.1 | 12% | 3.8 | 6 | -4 |
| CC(C)n1c(=S)[nH]c2scc(-c3cccs3)c2c1=O | ? | 90* | -0.9 | nt | -28 | 47 | 3 |
| Cc1onc(-c2ccc(Cl)cc2)c1-c1ccnn1S(=O)(=O)c1ccc(Cl)cc1 | 1.4 | -8 | -1.5 | -1% | -3.1 | 1 | -3 |
| Cc1nc2c(C(=O)NCc3ccc4c(c3)OCO4)c[nH]n2c(=O)c1Cc1ccccc1F | 3.1 | 12 | -2.5 | 13%&-5% | -2.5 | 63 | 9 |
| Cc1ccc(CC2CC(=O)N(c3ncccn3)C2=O)cc1 (centres undefined) | -0.6 | -2 | -3.8 | -3% | 1.5 | -9 | 2 |
| Cc1ccc(S(=O)(=O)N2CC(=NN=C(N)N)C2)cc1 | -2.2 | 16 | -0.9 | nt | 1.5 | -2 | -1 |
| Fc1ccc(-c2csc(-c3ccc(C4SCCS4)cc3)n2)cc1F | -3.5 | -10 | 1.8 | -1% | -1.3 | -2 | 3 |
| Oc1ccc(-c2nc3ccccn3c2NCc2ccco2)cc1 | -2.4 | 53 | 5.0 | 7% | -4.6 | 5 | 3 |
| Cc1ccc(NS(=O)(=O)c2cccc(C(=O)NNC(=O)NC3CCCCC3)c2)c(C)c1 | 4.3 | nt | 3.2 | -2% | 2.2 | 12 | 0 |
| Cc1cc(C(=O)OCC(=O)N(C)c2ccccc2)c2ccccc2n1 | nt | -26 | -1.4 | nt | -1.6 | nt | -14 |
| O=C(CCCN=C1NS(=O)(=O)c2ccccc21)Nc1ccc(Cl)cc1 | nt | 1 | 2.2 | -3% | -2.7 | nt | 3 |
| CCc1ccccc1NC(=S)Nn1cnnc1 | nt | 9 | 3.2 | nt | -0.6 | 4 | 4 |
| CN(C)c1ccc(/C=C2\C(=N)N3N=C(CC(=O)N4CCCC4)SC3=NC2=O)cc1Br | 1.8 | 4 | -1.8 | nt | 3.0 | nt | -1 |
| O=c1cc(NCCc2ccccc2)c2ccccc2o1 | 0.3 | nt | -1.2 | -9% | -0.8 | 37 | -9 |
| O=C(Nc1nnc(S(=O)(=O)N2CCCCCC2)s1)c1ccc(Br)cc1 | 2.1 | nt | -1.2 | nt | 1.4 | -1 | 9 |
| Cc1onc(-c2c(Cl)cccc2Cl)c1C(=O)c1ccc(F)cc1 | 4.6 | -4 | -0.4 | 12% | -2.4 | 3 | -1 |
| CC1CCN(C(=O)COC(=O)Cc2ccc(Br)cc2)CC1 | -1.6 | nt | 1.4 | 11% | 4.4 | -2 | -6 |
| O=[N+]([O-])c1ccc2c(c1)C=C1CCCCC1(N1CCCC1)O2 (centres undefined) | 4.4 | 92* | 2.9 | 3% | 2.9 | -5 | 2 |
| O=S(=O)(c1ccc2nc(Cc3cccc(C(F)(F)F)c3)[nH]c2c1)N1CCOCC1 | 4.8 | -4 | -0.9 | -6% | -1.0 | 9 | 1 |
| Cc1ccc([N+](=O)[O-])cc1NC(=O)CN(C(=O)c1ccccc1Cl)C1CCCCC1 | 2.4 | nt | nt | 10% | 0.3 | -2 | 0 |
| CCC(=O)Nc1ccc(-c2nnc(SCC(=O)Nc3nccs3)n2C)cc1 | -2.2 | -16 | 2.3 | 19% | 2.8 | -5 | -4 |
| O=c1[nH]c(=O)c2cn[nH]c2[nH]1 | nt | -2 | -4.5 | nt | -0.8 | nt | -2 |

Fetched one by one from the list above (2):
| SMILES | RanGTP-Impb inh | ALR inh | LANA-H2A inh | Vif A3G | HNF4A DNA FP | Calb FLC | B2AR ag |
| --- | --- | --- | --- | --- | --- | --- | --- |
| O=S(=O)(c1ccc2nc(Cc3cccc(C(F)(F)F)c3)[nH]c2c1)N1CCOCC1 | 4.8 | -4 | -0.9 | -6% | -1.0 | 9 | 1 |
| CCC(=O)Nc1ccc(-c2nnc(SCC(=O)Nc3nccs3)n2C)cc1 | -2.2 | -16 | 2.3 | 19% | 2.8 | -5 | -4 |

Additional results follow:
| SMILES | RanGTP-Impb inh | ALR inh | LANA-H2A inh | Vif A3G | HNF4A DNA FP | Calb FLC | B2AR ag |
| --- | --- | --- | --- | --- | --- | --- | --- |
| Cc1cc(C)cc(OCc2nnc(SCC(=O)N3CCN(c4ccccc4)CC3)o2)c1 | -1.7 | 0 | 6.1 | 7% | -1.9 | -8 | -5 |
| COc1cc2c3c([nH]c2cc1F)C(=O)NCC3 | 3.6 | -21 | 0.9 | nt | 5.7 | -3 | -2 |
| COc1ccc(N=C2C(=Nc3ccc(OC)cc3)N(c3ccc(OC)cc3)C(=S)N2C(=O)c2ccc(OC)cc2)cc1 | 4.8 | -2 | 10 | 8% | 9.8 | -5 | -7 |
| O=C(Nc1ccccc1N1CCCCC1)c1ccccc1F | ? | 38 | 0.8 | 70% | 2.3 | 36 | 6 |
| O=[N+]([O-])c1cc(-c2ncccn2)cs1 | 1.0 | nt | -3.3 | -7% | 0.3 | -1 | 5 |
| COc1cccc(-n2nnnc2SCC(=O)Nc2ccc(NC(C)=O)cc2)c1 | ? | 39 | -4.9 | 1% | -0.3 | nt | -3 |
| Cc1cc(Cl)ccc1Oc1ncc(-c2ccc(Cl)cc2)cn1 | 7.7 | nt | -2.8 | -1% | -3.0 | -1 | 0 |
| CCN(CC)CC(O)c1cccn1-c1ccc(CNC(=O)NC(C)C)cc1 (centres undefined) | -3.6 | -1 | -1.7 | 11% | -1.9 | 3 | -2 |
| CC(=O)Nc1cccc(NC(=O)Cc2nc(-c3ccccc3)sc2-c2ccc(C)cc2)c1 | -1.3 | -3 | -4.4 | nt | -0.1 | -22 | -7 |
| COc1ccc(C(=O)CN2C(=O)c3ccccc3C2=O)cc1 | 4.3 | -7 | -1.9 | 2% | -6.2 | 2 | -9 |
| CC(OC(=O)c1ccc(S(=O)(=O)NCc2ccco2)cc1)C(=O)Nc1ccc(Cl)cn1 (centres undefined) | 2.5 | -1 | -0.3 | 14% | -7.0 | 14 | 6 |
| OCCN1CCN(CCSc2ccccc2)CC1 | ? | 1 | 1.3 | 2% | 1.0 | -6 | 1 |
| COCCCn1c(=O)c2ccccc2n(CC(=O)NC2CCCC2)c1=O | -3.1 | -2 | -4.7 | nt | 1.1 | 2 | 1 |
| CNS(=O)(=O)c1cccc(C(=O)OCC(=O)c2cc3ccccc3o2)c1 | nt | -12 | -6.5 | nt | 7.4 | -8 | -4 |
| N#CC1(NC(=O)CSc2nnc(COc3ccccc3F)n2N)CCCCC1 | 8.7 | -14 | 0.1 | -3% | -0.3 | nt | -4 |
| CC(C)CN(CC(C)C)S(=O)(=O)N1CCC(C(=O)NCc2cccs2)CC1 | 1.2 | -17 | 4.4 | 10% | 0.7 | 41 | 4 |

Copied from the list.
OCCN1CCN(CCSc2ccccc2)CC1 | Vif A3G: 2%
COCCCn1c(=O)c2ccccc2n(CC(=O)NC2CCCC2)c1=O | Calb FLC: 2
CC(OC(=O)c1ccc(S(=O)(=O)NCc2ccco2)cc1)C(=O)Nc1ccc(Cl)cn1 (centres undefined) | Vif A3G: 14%
